Polio RdRp inh: poliovirus RNA polymerase inhibition; poliovirus polymerase elongation, fluorescence polarization; active compounds read low; % elongation, % (compound at 16.7 µg/mL); 0.66% of 150,000 active; in the data active means % elongation below about 90%; further: some results filed as inactive read as strong as hits
Target sequence (P03300 1749-2209 limits assumed): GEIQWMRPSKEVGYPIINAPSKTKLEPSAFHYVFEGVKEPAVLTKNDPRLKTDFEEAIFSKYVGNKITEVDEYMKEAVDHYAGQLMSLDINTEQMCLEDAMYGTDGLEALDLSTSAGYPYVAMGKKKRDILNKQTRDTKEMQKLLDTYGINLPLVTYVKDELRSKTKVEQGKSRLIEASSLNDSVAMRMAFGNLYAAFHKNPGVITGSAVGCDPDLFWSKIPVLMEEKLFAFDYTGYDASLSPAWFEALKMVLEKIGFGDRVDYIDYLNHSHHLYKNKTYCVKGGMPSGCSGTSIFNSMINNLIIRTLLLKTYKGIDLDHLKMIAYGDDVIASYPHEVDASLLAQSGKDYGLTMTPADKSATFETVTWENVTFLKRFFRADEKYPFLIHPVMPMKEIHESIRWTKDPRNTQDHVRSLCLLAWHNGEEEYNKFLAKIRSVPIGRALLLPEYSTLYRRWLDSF
Polio RdRp inh intensity: further read-out of Polio RdRp inh, marked with its call; % elongation; measured here: total intensity read-out; formula for this scale not given here;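 total fluorescence in place of polarization; lower means less elongation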
* = called active by the depositor.

SMILES	Polio RdRp inh	Polio RdRp inh intensity
CCc1ccccc1NC(=O)c1ccc2c(c1)c(C)c(C)n2Cc1ccccc1	108	116
COc1ccccc1Nc1sc(C(=O)c2ccc(C)cc2C)c(N)c1S(=O)(=O)c1ccccc1	108	113
COc1cc(Cl)c(C)cc1NC(=O)c1cc2c(=O)oc3ccccc3c2s1	106	106
CCCCn1cc(S(=O)(=O)c2cc(C)ccc2C)c(=O)c2cc(F)c(N3CCC(C)CC3)cc21	110	113
Cc1c(NC(=O)c2cc(-c3cccc(O)c3)on2)c(=O)n(-c2ccccc2)n1C	102	102
CCC(=O)N1CCc2cc(CNC(=O)c3ccc(F)cc3)ccc21	103	108
N#Cc1c(-n2ncnc2-c2cccc(Cl)c2)sc2c1CCCCC2	105	104
CCCCN(CC)C(=O)CSc1nc2c(sc3ccccc32)c(=O)n1CCc1ccccc1	99	97
CC(=O)c1ccc(N2CCN(C(=O)CCS(=O)(=O)c3ccc4c(c3)oc(=O)n4C)CC2)cc1	113	112
Cc1cccc(-c2nc3c4c(-c5ccccc5)c(-c5ccccc5)oc4ncn3n2)c1	108	105
CCOc1ccc(NC(=O)Cn2c(=O)n(-c3ccc(C)cc3)c(=O)c3cc(OC)c(OC)cc32)cc1	109	112
CCc1ccc(NC(=O)Cn2c(=O)n(-c3cc(C)cc(C)c3)c(=O)c3oc4ccccc4c32)cc1	107	113
COc1ccc(CCNC(=O)c2nc(-c3ccc(Cl)cc3)n3c2CCCCC3)c(OC)c1	107	114
CCOc1ccc(NC(=O)N2CCC(CN3CCC(C)CC3)CC2)cc1	102	93
CCN1CCC(N(Cc2ccc3c(c2)OCO3)C(=O)Nc2cc(F)ccc2F)CC1	108	107
Cc1noc(C)c1S(=O)(=O)Nc1ccc(C(=O)Nc2ccc(C(C)C)cc2)cc1	105	105
COc1ccccc1C(=O)Nc1ccc2nc(SCC(=O)N3CCCC3)sc2c1	106	115
CC(=O)N1CCCc2cc(S(=O)(=O)N3CCCC(C(=O)Nc4ccc(F)cc4F)C3)ccc21 (stereo unspecified)	102	108
O=C(Cn1cc(C(=O)c2ccco2)c2ccccc21)Nc1ccccc1C(F)(F)F	102	104
COc1ccc(NCc2cc3ccc(OC)cc3n(CC(=O)Nc3ccc(C)c(C)c3)c2=O)cc1	108	110

Next entries:
SMILES	Polio RdRp inh	Polio RdRp inh intensity
Cc1cc2oc(C(=O)Nc3ccc(S(=O)(=O)Nc4ncccn4)cc3)cc(=O)c2cc1C	108	111
CCC(C)NC(=O)CSc1nc2cc3c(cc2c(=O)n1Cc1ccc(C(=O)NCCc2ccc(OC)c(OC)c2)cc1)OCO3 (stereo unspecified)	111	110
CCN(CC)CCCNC(=O)c1cc(-c2ccc(OC)c(OC)c2)on1	104	107
O=C(c1cccn1-c1nnc(N2CCCCC2)s1)N1CCN(c2ccc(Cl)cc2)CC1	104	104
FC(F)(F)c1ccc(C2=Nc3ccccc3NC(c3cccs3)=N2)cc1	103	98
CCc1nnc(SCc2ccc(F)cc2Cl)c2cc3sccc3n12	110	115
Cc1ccccc1NC(=O)c1ccc2nc(Cc3ccccc3)oc2c1	106	113
O=C(COc1ccc(Cl)cc1)Nc1sc2c(c1C(=O)Nc1cccc(Cl)c1)CCCC2	81*	75*
O=C(CSc1nc2ccsc2c(=O)n1Cc1ccccc1Cl)NCc1ccc(F)cc1	104	107
O=C(OCc1cc(=O)n2nc(-c3cccs3)sc2n1)c1ccccc1Cl	109	113
CSc1cccc(NC(=O)Cn2nnc(C(=O)NCCc3ccccc3)c2N)c1	103	106
COc1cccc(N2CCN(c3ncnc4c3c(-c3ccccc3)cn4-c3cccc(C(F)(F)F)c3)CC2)c1	105	107
Nc1c(C(=O)Nc2cccc(F)c2)c2ccccn2c1C(=O)c1ccccc1	104	107
CCCS(=O)(=O)NCCc1csc2nc(-c3ccc(C)cc3)nn12	110	112
Cc1cc(-c2ccc(S(=O)(=O)Nc3cccc(C)c3C)s2)on1	117	111
CC(=O)Nc1ccc(S(=O)(=O)NCC2CCC(C(=O)NCCc3ccc(C)cc3)CC2)cc1 (stereo unspecified)	101	98
CCC1CN(C(=O)Nc2ccccc2F)c2cc(C)ccc2O1 (stereo unspecified)	109	111
CCCNC(=O)Cn1c(=O)cc(C)c2c(C)nn(-c3cccc(F)c3)c21	102	102
COC(=O)c1cc2sccc2n1Cc1ccc(F)cc1Cl	105	110
CCOC(=O)c1cc(-c2ccc(C)cc2)n(CCC(=O)Nc2cc(Cl)ccc2C)c1C	103	112

Of the compounds above, these have fluorine:
SMILES	Polio RdRp inh	Polio RdRp inh intensity
CCCCn1cc(S(=O)(=O)c2cc(C)ccc2C)c(=O)c2cc(F)c(N3CCC(C)CC3)cc21	110	113
CCC(=O)N1CCc2cc(CNC(=O)c3ccc(F)cc3)ccc21	103	108
CCN1CCC(N(Cc2ccc3c(c2)OCO3)C(=O)Nc2cc(F)ccc2F)CC1	108	107
CC(=O)N1CCCc2cc(S(=O)(=O)N3CCCC(C(=O)Nc4ccc(F)cc4F)C3)ccc21 (stereo unspecified)	102	108
O=C(Cn1cc(C(=O)c2ccco2)c2ccccc21)Nc1ccccc1C(F)(F)F	102	104
FC(F)(F)c1ccc(C2=Nc3ccccc3NC(c3cccs3)=N2)cc1	103	98
CCc1nnc(SCc2ccc(F)cc2Cl)c2cc3sccc3n12	110	115
O=C(CSc1nc2ccsc2c(=O)n1Cc1ccccc1Cl)NCc1ccc(F)cc1	104	107
COc1cccc(N2CCN(c3ncnc4c3c(-c3ccccc3)cn4-c3cccc(C(F)(F)F)c3)CC2)c1	105	107
Nc1c(C(=O)Nc2cccc(F)c2)c2ccccn2c1C(=O)c1ccccc1	104	107
CCC1CN(C(=O)Nc2ccccc2F)c2cc(C)ccc2O1 (stereo unspecified)	109	111
CCCNC(=O)Cn1c(=O)cc(C)c2c(C)nn(-c3cccc(F)c3)c21	102	102
COC(=O)c1cc2sccc2n1Cc1ccc(F)cc1Cl	105	110

Next part:
SMILES	Polio RdRp inh	Polio RdRp inh intensity
CCCCOC(=O)c1ccc(NC2=NS(=O)(=O)c3ccccc32)cc1	109	111
Cc1ccc(OCC(=O)Nc2nc(-c3ccc(Br)cc3)ns2)cc1C	109	102
COc1ccc(-c2c3c(=O)n(C)c(=O)n(C)c3c3n2-c2ccccc2NC3c2ccc(OC)cc2)cc1 (stereo unspecified)	115	110
CCSc1ncc(Cl)c(C(=O)Nc2nc3ccc(OC)cc3s2)n1	101	96
CCN1C(C(=O)c2ccccc2)=C(NC(=O)c2ccc(Cl)cc2)c2ccccc2S1(=O)=O	100	101
COc1cccc(NC(=O)CSc2cc(=O)n(C)c3ccc(Cl)cc23)c1	105	111
COc1ccc(OCC(=O)Nc2cccc(-c3nc4ccccc4s3)c2C)cc1	111	100
CCOc1ccccc1NC(=O)Cc1csc(COc2cccc(C)c2)n1	100	93
CCCCN(CCCC)CCNC(=O)c1cn(CC)c2ccc(S(=O)(=O)N3CCc4ccccc4C3)cc2c1=O	105	108
COc1ccc(N2CCN(C(=O)Cn3cnc4sc(C)c(S(=O)(=O)N5CCCCC5)c4c3=O)CC2)cc1	106	110
Cc1ccc(Cl)cc1NC(=O)Cn1c(=O)oc2cc(S(=O)(=O)N3CCCC3)ccc21	103	108
CCN1CCN(C(=O)Cn2c(-c3cccs3)cc3ccccc32)CC1	118	117
CCCOC(=O)c1c(NC(=O)C2c3ccccc3Oc3ccccc32)sc2c1CCC(C)C2 (stereo unspecified)	107	107
Cc1ccc(N2C(=O)CSC23C(=O)N(CC(=O)Nc2ccc(C(C)C)cc2)c2ccccc23)cc1C (stereo unspecified)	110	112
COc1ccccc1N1CCN(C(=O)Cn2ncc3c(=O)oc4ccc(C)cc4c32)CC1	110	110
CC(=O)c1ccc(S(=O)(=O)N2CCn3cccc3C2c2ccc(F)c(F)c2)cc1 (stereo unspecified)	99	99
O=C(NCCCN1CCN(c2ccccc2)CC1)c1ccc2nc(CCc3ccccc3)oc2c1	112	110
COc1ccc(-c2onc(C)c2C)cc1S(=O)(=O)NCCc1ccccc1	106	105
CCc1ccccc1NC(=O)CSc1nnc(CC)c(CC)n1	110	111
CCCCn1c(=NC(=O)c2c(-c3c(F)cccc3Cl)noc2C)c(C(=O)OCC)cc2c(=O)n3ccccc3nc21	104	104

(list continues)
SMILES	Polio RdRp inh	Polio RdRp inh intensity
CNC(=O)c1ccc(Nc2nnc(-c3ccc(C)c(S(=O)(=O)N(C)C)c3)c3ccccc23)cc1	106	107
CCN(C(=O)c1cc2cc3ccc(OC)cc3nc2o1)c1cccc(C)c1	108	109
Cc1ccc(CN(C(=O)c2ccccc2[N+](=O)[O-])c2ccccn2)cc1	110	107
Cc1ccc(Cc2nc3ccccc3nc2SCC(=O)NCCC(C)C)cc1	109	101
COc1ccc(CCNc2oc(/C=C/c3cc(OC)c(OC)c(OC)c3)nc2C#N)cc1OC	103	108
CCCCNc1ccc(-c2nc(-c3ccccn3)no2)cc1[N+](=O)[O-]	104	116
CCc1ccc(S(=O)(=O)c2nnn3c2nc(NCc2cccc(OC)c2)c2cc(Cl)ccc23)cc1	89*	69*
CC(=O)N1CCc2cc(S(=O)(=O)N3CCN(c4ccc(C)cc4)C(C)C3)ccc21 (stereo unspecified)	110	108
COc1ccc(C2c3[nH]c4ccc(OC)cc4c3CCN2C(=O)Nc2ccccc2)cc1 (stereo unspecified)	105	105
Cc1ccc(-c2nc3nc(C)cc(N4CCN(c5cccc(C)c5C)CC4)n3n2)cc1	108	114
CCCCC(=O)Nc1ccc(C(=O)OCc2cc(=O)n3ccsc3n2)cc1	108	111
CCC(=O)N1CCc2cc(Br)cc(S(=O)(=O)N3CCCC(C(=O)NCc4cccc(OC)c4)C3)c21 (stereo unspecified)	101	99
Cc1nnc(N2CCC(C(=O)N3CCCCC3)CC2)c2nn(-c3ccccc3)c(C)c12	101	102
COc1ccc(OC)c(NC(=O)C2=C(C)C(=O)OC23CCCCCC3)c1	107	96
CCn1c(C(=O)N2CCC(C(=O)NCCCOC)CC2)cc2sccc21	106	108
Cc1ccc(NC(=O)Nc2sc3nc4n(c(=O)c3c2C)CCC(C)CC4)c(Cl)c1 (stereo unspecified)	113	108
Cc1ccc(C(=O)c2cn(Cc3ccc(F)cc3)c3nc(C)ccc3c2=O)cc1	111	116
CCOc1cccc(C(=O)Nc2c(C(=O)c3ccc(OC)cc3)oc3ccccc23)c1	108	110
O=C(CCn1c(=O)c2cccn2c2cccnc21)N1CCN(c2ccccc2)CC1	111	100
COc1cc(NC(=O)NCCn2nnc3cc(S(=O)(=O)N(C)C)ccc32)cc(OC)c1	101	100

Next records.
SMILES	Polio RdRp inh	Polio RdRp inh intensity
COc1ccc(CNC(=O)c2cc(-c3ccc(OC)c(OC)c3)nc3n[nH]c(-c4ccc(C)cc4)c23)cc1	99	99
CCOc1cc(C#N)c(NC(=O)c2ccc(OC)c(S(=O)(=O)N3CCN(c4ccccc4)CC3)c2)cc1OCC	101	105
COCCNc1nc2c(S(=O)(=O)c3ccccc3)nnn2c2ccc(Cl)cc12	97	91
CCCCn1cc2c(c1-c1ccc(Cl)cc1)c(=O)n(C)c(=O)n2C	100	108
CCCCNC(=O)C(Cc1ccccc1)NS(=O)(=O)c1ccc2c(c1)c(=O)n(C)c(=O)n2C (stereo unspecified)	102	104
CCCc1cnc2c(c1SCc1ccc(C(F)(F)F)cc1)c(=O)n(C)c(=O)n2C	112	114
Cc1c(CNC2CCC(C)CC2)c(C(=O)O)c(C)n1Cc1ccc(Cl)cc1 (stereo unspecified)	109	111
COc1ccc(CCNC(=O)c2ccc3c(c2)nc2n3CCCCC2)cc1OC	106	104
CC(=O)N1CCc2cc(S(=O)(=O)CCC(=O)Nc3ccc(C)cc3Br)ccc21	115	113
COc1ccccc1CNC(=O)CCCn1c(=O)c2cccn2c2ccccc21	117	117
COCCCNC(=O)c1oc2c(c1C)-c1nn(Cc3ccc(Cl)cc3)cc1CC2	106	112
COC(=O)C1=C(c2ccccc2)c2ccccc2S(=O)(=O)N1CC(=O)Nc1ccccc1Cl	104	104
Cc1ccc(-c2nc(CCNC(=O)C(=O)Nc3ccc(C)cc3C)cs2)cc1	103	109
CCC(C)n1c(=N)c(C(=O)NC2CCCCC2)cc2c(=O)n3ccccc3nc21 (stereo unspecified)	109	113
Cc1cccc2c1-c1sc(C(=O)N(C)c3cccc(C(F)(F)F)c3)cc1CO2	106	108
COc1ccc(-c2cc(C(=O)OCC(=O)c3ccc(C)cc3)c3cccc(Cl)c3n2)cc1	103	107

An excerpt from above in order of length of the SMILES, ascending:
SMILES	Polio RdRp inh	Polio RdRp inh intensity
COc1ccccc1CNC(=O)CCCn1c(=O)c2cccn2c2ccccc21	117	117
COc1ccc(CCNC(=O)c2ccc3c(c2)nc2n3CCCCC2)cc1OC	106	104
Cc1cccc2c1-c1sc(C(=O)N(C)c3cccc(C(F)(F)F)c3)cc1CO2	106	108

An excerpt, so the mix of outcomes need not match the whole.
